Assay outcomes: PubChem, several laboratories
CSC inhib = cancer stem cell inhibition | inhibition, % at 7.5 µM | actives 1.1% (n = 300,000) | cancer stem cell-like cells viability, luminescence;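 active means mean at 75% or more and at least half the replicates too; inconclusive means mean and replicates disagree; tested in HMLE shEcad cells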;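 further: 0% = median of negative and 100% = median of positive control wells; the first replicate is given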
PABP polyA inh = PABP-poly(A) binding inhibition | P11940 | PABP-poly(A) RNA binding, fluorescence polarization | inhibition, % at 35 µM | actives 1% (n = 290,000) | AID 2014;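 active means 50% or more with normal probe brightness, or confirmed in later tests; inconclusive means above 50% with abnormal brightness, or retests that disagree; inactive means below 50% or failed in later tests; about a fifth of its hits are not listed in these tables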;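 further: calls also rest on retests at 20 µM and on dose response follow-up; controls were probe without protein and protein plus probe with vehicle; some compounds called inactive have numbers as strong as hits; many hits fall short of the cut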
Rce1 inhib = yeast Ras-converting enzyme inhibition. actives 0.27% (n = 290,000). calls only. Q03530. yeast membranes, quenched prenylated peptide cleavage fluorescence;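 active means fall in fluorescence gain of 50% or more versus controls, with final raw signal at or below 3038400; inconclusive means same 50% fall but final raw signal above 3038400; inactive means fall in fluorescence gain under 50%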;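 further: plate controls were neutral control wells for no effect and wells lacking membranes for full effect; tested at 10 µM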
Target sequence (Q03530 whole entry, looked up): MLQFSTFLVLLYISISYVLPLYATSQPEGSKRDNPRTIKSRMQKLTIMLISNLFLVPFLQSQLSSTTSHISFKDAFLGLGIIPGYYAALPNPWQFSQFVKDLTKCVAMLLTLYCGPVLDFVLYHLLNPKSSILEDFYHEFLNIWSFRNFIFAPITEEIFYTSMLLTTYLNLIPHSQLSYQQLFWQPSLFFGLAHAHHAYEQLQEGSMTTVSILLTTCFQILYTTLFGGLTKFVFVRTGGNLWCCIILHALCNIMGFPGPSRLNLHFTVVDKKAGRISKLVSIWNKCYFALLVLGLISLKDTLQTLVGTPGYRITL
UUG fidelity = alters start codon recognition fidelity in yeast | S. cerevisiae UUG-firefly luciferase reporter, luminescence/redox ratio | activity score, % at 18.7 µM | actives 0.13% (n = 350,000) | AID 602363;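 active means replicate mean at a twofold rise or more, about +100% in these data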;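 further: firefly luciferase made from a UUG start codon reports start codon fidelity; reporter light over untreated wells divided by growth signal over untreated wells; some hits fall short of that in this replicate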
MT1-MMP act inh = blocks activation of human MT1-MMP | HT1080 RFP-PRO-GFP cells, GFP/RFP ratio fluorescence, overnight; percent of plate control window, DMSO zero | GFP/RFP ratio change, % at 20 µM | P50281 | actives 0.061% (n = 360,000);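 active means GFP/RFP ratio change of at least 30% with cell ATP level not reduced by more than half and red fluorescence within 50% of control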; further: strong numbers were not always called active
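Assay system: RFP-PRO-GFP reporter HT1080 cells; read-out basis: GFP/RFP fluorescence ratio; benchmarks: DMSO wells and RFP-L50D-GFP cells; doses: 20 µM single dose, 1% DMSO; schedule: overnight cell settling, then overnight compound exposure, 37 °C, 5% CO2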
eIF4H FP inh = inhibitors of RNA binding by human eIF4H; eIF4H fluorescence polarization binding assay; inhibition, % at 35 µM; actives 0.94% (n = 290,000);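 active means 50% or more with normal probe brightness, or confirmed in later tests; inconclusive means above 50% with abnormal brightness, or retests that disagree; inactive means below 50% or failed in later tests; about a fifth of its hits are not listed in these tables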;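 further: calls also rest on retests at 20 µM and on dose response follow-up; 0% = protein and probe with vehicle and 100% = probe without protein; strong numbers were not always called active; many hits fall short of the cut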
HIV Env fusion = HIV envelope-mediated fusion inhibition; HeLa-JRFL Env/CEM21 cell fusion, luciferase; inhibition, % at 12.3 µM; actives 1.1% (n = 360,000);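 active means mean replicate inhibition score of at least 50 and every replicate individually at or above 50; inconclusive means only one of the two criteria met; inactive means mean below 50 and not all replicates reaching 50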;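 further: 0% = plate neutral controls and 100% = maraviroc near 300 nM; one replicate is shown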
eIF4H FP inh retest = also measured in eIF4H FP inh; calls as there; inhibition, %; compound at 20 µM; confirmation average;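 mean of two retest wells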
PABP polyA inh retest = also measured in PABP polyA inh; calls as there; inhibition, %; compound at 20 µM; confirmation repeats;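 mean of two retest wells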
MT1-MMP act inh RFP = also measured in MT1-MMP act inh; calls as there; RFP signal change, %; measured here: RFP expression control read;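 0 = vehicle wells; hits needed this value within 50% of zero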
* hit, by the source's call; i = inactive; ? = inconclusive; . = not tested or not shown. No enrichment for hits, and some 2.9% of all compounds hit somewhere here.

SMILES	CSC inhib	PABP polyA inh	Rce1 inhib	UUG fidelity	MT1-MMP act inh	MT1-MMP act inh RFP	eIF4H FP inh	HIV Env fusion	others
O=C(/C=C/c1ccco1)Nc1ccc(Oc2ccc(Cl)cc2)cc1	2	2	i	-18	-19	-22	-6	.
CCCCn1c(N)c(Sc2ccc([N+](=O)[O-])cc2)c(=O)[nH]c1=O	-20	2	i	-8	5	1	-8	-10
COc1cc(F)cc(-c2ccc3c(c2)c(C#Cc2ccsc2)c(-c2cc(OC)cc(OC)c2)n3C)c1	.	.	.	7	4	8	.	-181
CCN(CC(=O)Nc1ccc(OC)cc1)C(=O)c1cccc(S(=O)(=O)N2CCN(c3ccccc3)CC2)c1	.	.	.	10	4	-13	.	8
N#Cc1c(-c2ccco2)cc(-c2ccc(F)cc2)nc1N	-8	76*	i	-18	-13	4	62*	.
Clc1ccc(NCc2cccnc2)c(Cl)c1	-9	-2	i	-19	5	-4	11	6
CCOCCCn1c(SCC(=O)Nc2ccc(OC)cc2)nc2ccccc2c1=O	9	-1	i	-12	-2	0	-1	1
COc1ccc(-n2cnnc2SC(C)C(=O)Nc2cccc([N+](=O)[O-])c2)cc1 (stereo unspecified)	7	5	i	.	2	3	-4	-1
Cc1ccc(NC(=O)Cn2c(=O)oc3ccccc32)cc1Cl	-11	-7	i	-18	1	-6	-11	3
COc1cccc(C(=O)Nc2cnc(NC(=O)c3ccco3)cc2C)c1	.	-1	i	-3	4	1	-11	.
FC(F)(F)c1cc(C(F)(F)F)c2ccc(N/N=C/c3ccccc3)nc2n1	-6	3	i	18	3	7	4	.
Cc1c(NC(=O)c2cc(Br)ccc2Cl)cccc1-n1cnnn1	6	.	.	-17	0	-4	.	3
CCC1Sc2ccc(S(=O)(=O)CCC(=O)NCc3ccc(C)o3)cc2NC1=O (stereo unspecified)	9	.	i	.	8	0	.	-2
O=C(c1cccs1)N1CCN(c2ccc(F)cc2)CC1	-8	-3	i	-3	3	-2	0	.
CN(C1CCCCC1)S(=O)(=O)c1ccc(NC(=O)C2CCCCC2)cc1	8	-3	i	-12	-6	-4	1	3

Ordered by number of heavy atoms (highest first): 11 of the compounds above
SMILES	CSC inhib	PABP polyA inh	Rce1 inhib	UUG fidelity	MT1-MMP act inh	MT1-MMP act inh RFP	eIF4H FP inh	HIV Env fusion	others
CCN(CC(=O)Nc1ccc(OC)cc1)C(=O)c1cccc(S(=O)(=O)N2CCN(c3ccccc3)CC2)c1	.	.	.	10	4	-13	.	8
COc1cc(F)cc(-c2ccc3c(c2)c(C#Cc2ccsc2)c(-c2cc(OC)cc(OC)c2)n3C)c1	.	.	.	7	4	8	.	-181
CCOCCCn1c(SCC(=O)Nc2ccc(OC)cc2)nc2ccccc2c1=O	9	-1	i	-12	-2	0	-1	1
CCC1Sc2ccc(S(=O)(=O)CCC(=O)NCc3ccc(C)o3)cc2NC1=O (stereo unspecified)	9	.	i	.	8	0	.	-2
COc1cccc(C(=O)Nc2cnc(NC(=O)c3ccco3)cc2C)c1	.	-1	i	-3	4	1	-11	.
O=C(/C=C/c1ccco1)Nc1ccc(Oc2ccc(Cl)cc2)cc1	2	2	i	-18	-19	-22	-6	.
Cc1c(NC(=O)c2cc(Br)ccc2Cl)cccc1-n1cnnn1	6	.	.	-17	0	-4	.	3
Cc1ccc(NC(=O)Cn2c(=O)oc3ccccc32)cc1Cl	-11	-7	i	-18	1	-6	-11	3
N#Cc1c(-c2ccco2)cc(-c2ccc(F)cc2)nc1N	-8	76*	i	-18	-13	4	62*	.
O=C(c1cccs1)N1CCN(c2ccc(F)cc2)CC1	-8	-3	i	-3	3	-2	0	.
Clc1ccc(NCc2cccnc2)c(Cl)c1	-9	-2	i	-19	5	-4	11	6

Other entries follow.
SMILES	CSC inhib	PABP polyA inh	Rce1 inhib	UUG fidelity	MT1-MMP act inh	MT1-MMP act inh RFP	eIF4H FP inh	HIV Env fusion	others
O=C(N/N=C/c1ccc(-c2ccccc2C(=O)O)o1)c1cccs1	4	22	i	.	-3	1	70	-5	eIF4H FP inh retest=-2;PABP polyA inh retest=4
Cc1ccc(C(=O)O)cc1S(=O)(=O)N1CCSCC1	2	-3	i	.	2	2	-2	-57
O=C(COc1ccc2c3c(c(=O)oc2c1)CCC3)NCc1cccnc1	-22	6	i	0	3	2	4	-13
NS(=O)(=O)c1ccc(CCNC(=O)CN2CCN(c3ccccc3F)CC2)cc1	-17	-18	i	.	2	1	-11	40
O=c1cc(CSc2ccccc2)[nH]c2ccccc12	-10	-12	i	-3	3	-9	-5	17
CCc1nc2ccc(C(=O)N(C)CCN(C)C)cn2c1N(CC)C(=O)NCCc1ccccc1	.	.	.	-5	0	7	.	?
Cc1cccn2cc(CNC(=O)c3ccco3)nc12	5	-11	i	-23	3	0	-8	.
CCOC(=O)C1=C(C)N(CCO)C(=O)NC1c1ccccc1 (stereo unspecified)	-11	-3	i	-3	16	0	-4	.
CN1C(C(=O)N2CCc3ccccc3C2)=CC(c2ccc(F)cc2)=NS1(=O)=O	-1	-2	i	0	-4	0	-23	8
CCN(CC1COc2ccccc2O1)C(=O)CN1C(=O)NC(C)(c2ccc(C)cc2)C1=O (stereo unspecified)	-7	.	i	22	-3	2	.	30
Cc1cccc(Oc2ccc(NC(=O)c3ccccc3C(=O)O)cc2)c1C	-15	-10	i	-8	-3	-5	-7	3
Cc1nnc(SCC(=O)NC2CC2)n1CC1CCCO1 (stereo unspecified)	-18	-14	i	.	0	4	-12	1
Cc1cccc(C(=O)Nc2cccnc2Cl)c1	-3	-5	.	146*	-1	1	-11	-38
COC(=O)c1sccc1NC(=O)c1cccs1	-13	4	i	-7	1	-4	2	-3
C=CCON1C(=O)c2ccccc2C1=O	.	-4	i	-4	1	2	1	.
Clc1cccc(C[n+]2cc(-c3ccccc3)n3c2CCC3)c1	7	-6	i	-5	-7	-8	2	-7
CSCC[C@H](NC(=O)[C@H](Cc1ccccc1)n1c(=O)[nH]c2ccccc2c1=O)C(=O)N1CCC(C(=O)O)CC1	-11	15	i	0	2	3	-2	.
COc1ccccc1NC(=O)c1ccc(COc2ccc3c(c2)CCC3)cc1	20	16	i	-10	-2	3	-2	-4
O=C1CC(NCc2ccc3c(c2)OCO3)C(=O)N1Cc1ccc2c(c1)OCO2 (stereo unspecified)	.	0	.	-14	4	9	-2	9
CN1C(=O)S/C(=C/c2ccccc2OCc2ccc(C(=O)O)cc2)C1=O	13	-1	i	.	-5	-1	-6	-4
Cc1ccc2c(c1)cc1c(=O)n(CC(=O)N3CCCC3)nc(C)n12	-2	.	i	-6	3	2	.	.
CCOC(=O)c1sc(Nc2ccccc2)nc1C	-4	-7	i	-3	1	3	-9	.
O=C(CN(C(=O)Cn1nnc(-c2ccc(F)cc2)n1)c1cnc2ccccc2c1)NCC1CCCO1 (stereo unspecified)	.	-8	i	.	3	-1	-14	-8
CCN(CC(=O)Nc1ccc2c(c1)OCCO2)CC(=O)Nc1ccccc1C(F)(F)F	-4	.	.	14	-1	2	.	-3
CCN(Cc1ccccc1)C(=O)CCS(=O)(=O)c1ccc2c(c1)n(C)c(=O)c(=O)n2C	5	-5	i	-4	1	2	-11	.
COc1ccc(-c2noc3c2-c2nc(-c4ccccc4C)sc2CC3)cc1	76*	.	i	.	.	.	.	38
Cc1coc2c(C)c3oc(=O)c(CCC(=O)NCCCN4CCOCC4)c(C)c3cc12	-10	-7	i	11	10	1	3	.
CCOC(=O)c1ccc(NC(=S)NCc2ccccc2)cc1	-7	3	i	-35	6	-2	4	-7
COc1ccc(C)cc1N(CC(=O)N1CCCCCC1)S(=O)(=O)c1ccccc1	-13	6	i	-7	0	7	-2	39
Cc1ccc(C(C(=O)NC2CCCC2)N(CCCO)C(=O)Cn2nnc(-c3ccc(C)o3)n2)cc1 (stereo unspecified)	-1	-4	i	.	-2	3	-12	4
CCOc1ccccc1-c1nc(C(N)=O)c2[nH]c(=O)n(-c3ccc(F)cc3)c2n1	-1	5	i	-20	-2	-1	-3	22
CC(C)[C@H](NC(=O)c1ccccc1)C(=O)OCc1nnc(-c2ccccc2)o1	-6	12	i	.	0	-1	-7	9
Cc1cc(=O)oc2cc(NC(=O)C(C)Oc3ccccc3)ccc12 (stereo unspecified)	1	.	i	.	0	-3	.	-3
COc1ccccc1/C=C/C(=C1/C(=O)N(c2ccccc2)N=C1C)c1ccc(C)cc1	35	-1	i	.	2	-4	-17	6
CC1CCc2sc(C(=O)NC(C)C3CCCO3)cc2C1 (stereo unspecified)	8	-4	i	0	1	-2	-9	-29
COC(=O)c1sc(N)c(C(=O)OC)c1COC(=O)C12CC3CC(CC(O)(C3)C1)C2	-7	10	.	-5	2	4	6	4
Cc1ccc(S(=O)(=O)CCC(=O)OCC(=O)NC(C)c2ccc(F)cc2)cc1 (stereo unspecified)	-9	.	.	9	0	-3	.	.
O=C(NC1CCCCC1)c1ccc([N+](=O)[O-])o1	51	8	.	-14	2	-4	7	.
CC(NC(=O)C1CSC2(C)CCC(=O)N12)c1ccccc1Cl (stereo unspecified)	3	.	i	-5	0	2	.	5
COc1ccc(C(=O)/C=C/c2cccs2)c(OC(=O)c2cccc([N+](=O)[O-])c2)c1	21	-12	i	.	6	1	-5	.
O=C(c1cc2ccccc2oc1=O)N(Cc1cccs1)Cc1cccs1	-7	-1	i	-5	-4	-1	-6	26
COc1cccc(CNC(=O)N[C@@H](C)C(=O)O)c1	-16	-2	i	.	0	-2	-10	1
C=CCNC(=O)C1CC(=O)N(c2ccc(OCC(=O)Nc3ccc(OC)cc3)cc2)C1 (stereo unspecified)	-8	0	i	-13	-2	2	13	-74
CCOC(=O)c1ccc(NC(=O)CSc2nncn2-c2cccnc2)cc1	-9	5	i	-43	-4	-1	1	-1
CCCCCOc1ccccc1C(=O)NCCC(=O)O	-8	3	i	-1	0	2	2	-49

Random excerpt: 2 compounds from above, in no set order.
SMILES	CSC inhib	PABP polyA inh	Rce1 inhib	UUG fidelity	MT1-MMP act inh	MT1-MMP act inh RFP	eIF4H FP inh	HIV Env fusion	others
Cc1ccc(C(C(=O)NC2CCCC2)N(CCCO)C(=O)Cn2nnc(-c3ccc(C)o3)n2)cc1 (stereo unspecified)	-1	-4	i	.	-2	3	-12	4
COc1cc(F)cc(-c2ccc3c(c2)c(C#Cc2ccsc2)c(-c2cc(OC)cc(OC)c2)n3C)c1	.	.	.	7	4	8	.	-181

Remaining list, next part:
SMILES	CSC inhib	PABP polyA inh	Rce1 inhib	UUG fidelity	MT1-MMP act inh	MT1-MMP act inh RFP	eIF4H FP inh	HIV Env fusion	others
O=C(c1ccc2c(c1)OCO2)C1CCCN(C2CCN(CCc3ccccc3)CC2)C1 (stereo unspecified)	41	12	i	.	7	5	-1	5
C=C(C)CN=C1SC(C(=O)Nc2sc3c(c2C(=O)OC)CCC3)C(N)=C1C(N)=O (stereo unspecified)	13	4	i	-21	-7	-5	19	-27
COc1ccc(/C=C2\SC(=NCc3ccccc3)N(Cc3ccccc3)C2=O)cc1OC	-2	-5	i	.	-7	-9	-2	.
CN(C)C(=N)c1n[nH]nc1SCc1ccccc1	-4	-6	i	.	-3	4	0	-4
O=C(c1ccc(Cl)cc1)C1CCN(C(=O)N2CCOCC2)CC1	-19	0	i	3	-4	0	-5	16
COc1cc(OC)c(C(=O)CCCN2CCCC2)c(OC)c1	-4	0	i	-6	.	.	-6	.
CC1CCN(C2CC(=O)N(c3ccccc3)C2=O)CC1 (stereo unspecified)	-11	2	.	-13	1	2	4	0
